# Bioassay records deposited in PubChem by NMMLSC.
# Beta2AR agonist – human beta-2 adrenergic receptor agonism by FAP; P07550; Am2.2-beta2AR cells, FAP receptor internalization, flow cytometry; reference of the scale not given here; response, % (test concentration not listed); actives 0.43% (n = 340,000);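 active means response above a set limit, near 3 SD of response in nonfluorescent compounds, cut at about 42% in these data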;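 further: stock transfer was 100 nL into about 11 µL; a reference agonist was the positive control; negative values mostly stem from fluorescent compounds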
# Target sequence (P07550 whole entry, looked up): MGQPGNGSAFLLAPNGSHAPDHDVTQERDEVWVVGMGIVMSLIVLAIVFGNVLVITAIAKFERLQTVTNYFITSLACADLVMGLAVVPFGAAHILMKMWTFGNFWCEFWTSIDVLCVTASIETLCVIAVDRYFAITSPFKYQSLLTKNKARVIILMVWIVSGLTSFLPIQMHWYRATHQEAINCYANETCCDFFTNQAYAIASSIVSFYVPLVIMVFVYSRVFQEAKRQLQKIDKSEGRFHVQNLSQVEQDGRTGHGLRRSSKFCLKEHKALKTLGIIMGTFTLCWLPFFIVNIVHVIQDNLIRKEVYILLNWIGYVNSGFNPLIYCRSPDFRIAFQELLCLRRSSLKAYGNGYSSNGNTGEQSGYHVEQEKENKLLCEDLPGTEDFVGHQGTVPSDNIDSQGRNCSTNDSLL
# * = called active by the depositor.
canonical_smiles | Beta2AR agonist
Cc1ccc(S(=O)(=O)N2[C@@H](c3ccc(Br)cc3)C(C(=O)O)=CC[C@H]2c2cccs2)cc1 | 10
CCN1C(c2ccccc2)=C(c2ccccc2)S/C1=C/C=C1\SC(=S)N(C)C1=O | 5
C[C@@](Cc1ccc(O)c(O)c1)(NN)C(=O)O | -12
CC1(C)CC(=O)C2=C(C1)Oc1ncn3nc(-c4cccnc4)nc3c1C2c1ccccc1 (stereo unspecified) | -10
CSc1nnc(-c2ccccc2)n1N | 5
N#Cc1ccccc1OCc1cccc(S(=O)(=O)N2CCOCC2)c1 | -2
Cc1c(Cl)cnc(NC(=O)CSc2nnc3ccccn23)c1Cl | 2
O=C(c1ccc(-c2ccccc2)cc1)N1CCN(Cc2ccccn2)CC1 | -7
CCOc1ccc(OCC)c(NC(=O)C2CCCN(S(=O)(=O)c3cccs3)C2)c1 (stereo unspecified) | 7
Cc1ccc(C(C(=O)NCc2ccco2)N(CCc2ccccc2)C(=O)Cn2nnc3ccccc32)o1 (stereo unspecified) | 11
CCOC(=O)C1CCCN(C(=O)c2ccc(Cl)c(S(=O)(=O)N3CCc4ccccc43)c2)C1 (stereo unspecified) | 9
O=C(COC(=O)c1ccc(NS(=O)(=O)c2cccs2)cc1)Nc1nc2c(F)c(F)c(F)cc2s1 | -4
NC(=O)C1(N2CCCCC2)CCN(C(=S)Nc2ccc(Cl)cc2)CC1 | 2
Cc1cccc(CN2CCC(CNC(=O)C3CCCN(S(=O)(=O)c4cnc[nH]4)C3)CC2)c1 (stereo unspecified) | 2
COc1cccc2c1C(=N)c1c(O)c3c(c(O)c1C2=O)CC(O)(C(C)=O)CC3OC1CC(N)C(O)C(C)O1 (stereo unspecified) | 4
c1ccc2c(c1)nc1n2C2(N3CCOCC3)CCCC2C1N1CCOCC1 (stereo unspecified) | -2
COc1cc2c3c(n(C)c(=O)c2cc1OC)-c1cc2c(cc1C3=O)OCO2 | -7
O=C1CCCc2ccc3ccccc3c21 | -1
COC(=O)c1sc2[nH]c(=S)n(N)c(=O)c2c1C | -1
OCC1OC(n2ccc3c(SCc4ccccc4)ncnc32)C(O)C1O (stereo unspecified) | -4
CN1CCc2c(n(CC(O)CN3C(=O)c4ccccc4S3(=O)=O)c3ccccc23)C1=O (stereo unspecified) | -2
Cc1cccn2c(=O)c3cc(C#N)c(=N)n(Cc4cccnc4)c3nc12 | 0
CCCCCCCCCCCCCCCC(=O)Nc1ccn(C2OC(CO)C(O)C2O)c(=O)n1 (stereo unspecified) | -4
COc1ccc(-n2c(C)cc(C(=O)COC(=O)c3ccc(O)cc3O)c2C)cc1 | 10
COc1cc(C=CC(=O)c2cc(OC)c(OC)c(OC)c2)cc(OC)c1OC | 2
COc1ccc(C2/C=C\CC(NS(=O)(=O)c3ccc(C)cc3)CC(=O)N2Cc2ccccc2F)cc1 (stereo unspecified) | 2
O=c1[nH]c(=O)n(C2OC(CO)C(O)C2O)cc1N1CCOCC1 (stereo unspecified) | -8
Cc1ccc(N2CC(C(=O)OCC(=O)Nc3ccc(F)cc3F)CC2=O)cc1 (stereo unspecified) | 0
O=C(c1ccccc1)c1cccc2ccccc12 | -9
CCCCNC(=O)C(C)N(CCN(C)C)C(=O)CCCN1C(=O)NC(c2ccc([N+](=O)[O-])cc2)C(C(=O)OCc2ccccc2)=C1C (stereo unspecified) | 20
CC(=O)N[C@H]1[C@H]([C@H](O)[C@H](O)CO)O[C@](O)(C(=O)O)C[C@@H]1O | 1
Nc1cccc2c(O)cc(S(=O)(=O)O)cc12 | 6
COc1ccc(C(=O)c2ccc(Cl)cc2)c(OC)c1OC | -5
Cc1cc(C)c(C)c(S(=O)(=O)N2CCN(C(=O)c3ccccn3)CC2)c1C | 1
Nc1ccc(CSc2ccc(Cl)cc2)c(Cl)c1 | -6
Cc1cccc(-n2nc3c(c2NC(=O)c2ccc(S(=O)(=O)N4CCOCC4)cc2)CSC3)c1C | 5
CC1=CC(=O)N(c2cccc3c(N4C(=O)C=C(C)C4=O)cccc23)C1=O | 4
O=C(CN1C(=O)NC2(CCCc3ccccc32)C1=O)Nc1ccccc1OC(F)F (stereo unspecified) | 6
CC(=O)Nc1ccc2c(c1)C(=O)c1ccc(Cl)cc1-2 | -1
C#CCOCCOCCOCCNc1nc(N2CCN(C(=O)Cn3cc(CCO)nn3)CC2)nc(N2CCN(C(=O)[C@H]([C@@H](C)CC)n3cc(CCCN=C(N)N)nn3)CC2)n1 | 16

# Filtered by structure: the compounds so far containing a COOH group.
canonical_smiles | Beta2AR agonist
Cc1ccc(S(=O)(=O)N2[C@@H](c3ccc(Br)cc3)C(C(=O)O)=CC[C@H]2c2cccs2)cc1 | 10
C[C@@](Cc1ccc(O)c(O)c1)(NN)C(=O)O | -12
CC(=O)N[C@H]1[C@H]([C@H](O)[C@H](O)CO)O[C@](O)(C(=O)O)C[C@@H]1O | 1

# Going on with the list:
canonical_smiles | Beta2AR agonist
COc1ccc(S(=O)(=O)N2CCOCC2)cc1C(=O)N(C)CCOc1ccc(Cl)cc1 | -2
NC(=O)C1(Nc2ccccc2)CCCC1 | 4
O=C1CSC(=S)N1N=Cc1c(O)ccc2ccccc12 | -16
Nc1ncc(C(=O)O)c(-c2ccccc2)n1 | -2
CCC(=O)OCOc1ccc(/C=C2/CCC(CN(C)C)C2=O)cc1 (stereo unspecified) | 17
CC[C@@H](C(=O)[C@@H](C)[C@@H](O)[C@H](C)[C@@H]1O[C@@H]([C@@H](CC)C(=O)O)CC[C@@H]1C)[C@H]1O[C@]2(C=C[C@@H](O)[C@]3(CC[C@@](C)([C@H]4CC[C@](O)(CC)[C@H](C)O4)O3)O2)[C@H](C)C[C@@H]1C | 40
COc1ccc(Nc2nnc(-c3ccc(N4CCOCC4)c([N+](=O)[O-])c3)c3ccccc23)cc1 | 16
COC(=O)c1ccc(NC(=O)c2cn(-c3cccc(C)n3)cn2)cc1 | 20
CC[C@H](C)[C@H]1CNC(=O)C(=O)N1CC1CCN(CCCc2ccc(OC)c(OC)c2)CC1 | -5
COc1ccc(C(=O)NCC(=O)OCC(=O)c2c(C)[nH]c3ccccc23)cc1OC | 1
COc1ncnc2c1oc1nc(CC(C)C)c3c(c12)CCCC3 | -16
O=C(COC(=O)C1=Cc2ccccc2OC1)NCc1ccc(F)cc1 | -8
NC(N)=NCCCS(=O)(=O)Nc1ccc(Nc2c3ccccc3nc3cc([N+](=O)[O-])ccc23)cc1 | 8
C=CCNc1oc(-c2ccc(-c3ccccc3)cc2)nc1C#N | 8
CCCc1nc2sc3ccccc3c(=O)c2c(=O)n1Cc1ccco1 | 26
Nc1nc(SCC(=O)c2ccc(Cl)cc2)c2ncn(C3OC(CO)C(O)C3O)c2n1 (stereo unspecified) | -3
C#CCOCCOCCOCCNc1nc(N2CCN(C(=O)Cn3cc(CCCCN)nn3)CC2)nc(N2CCN(C(=O)[C@H](C)n3cc(CCC(=O)O)nn3)CC2)n1 | -6
CC1CCCCC1NC(=O)COC(=O)c1c2c(nc3ccccc13)/C(=C\c1ccco1)CC2 (stereo unspecified) | -16
COCC(=O)Nc1ccc(N2CCCC2)c(S(=O)(=O)Nc2ccccc2OC)c1 | -5
COc1ccc(NS(=O)(=O)c2cc(NC(=O)CC(C)(C)C)ccc2N2CCCC2)cc1 | 1

# Quoted at random: 6 records from the list.
canonical_smiles | Beta2AR agonist
COCC(=O)Nc1ccc(N2CCCC2)c(S(=O)(=O)Nc2ccccc2OC)c1 | -5
CCC(=O)OCOc1ccc(/C=C2/CCC(CN(C)C)C2=O)cc1 (stereo unspecified) | 17
Nc1nc(SCC(=O)c2ccc(Cl)cc2)c2ncn(C3OC(CO)C(O)C3O)c2n1 (stereo unspecified) | -3
NC(=O)C1(Nc2ccccc2)CCCC1 | 4
COC(=O)c1ccc(NC(=O)c2cn(-c3cccc(C)n3)cn2)cc1 | 20
NC(N)=NCCCS(=O)(=O)Nc1ccc(Nc2c3ccccc3nc3cc([N+](=O)[O-])ccc23)cc1 | 8

# (next part)
canonical_smiles | Beta2AR agonist
CN(C)CCN1C(=O)CCC2(C)C1=CCC1C2CCC2(C)C1CCC2(C)O (stereo unspecified) | -3
CCc1cccc(C)c1NC(=O)CN(C)C1=NS(=O)(=O)c2ccccc21 | -2
CCN(C(=O)COC(=O)/C(=C/c1ccccc1)NC(C)=O)c1c(N)n(Cc2ccccc2)c(=O)[nH]c1=O | -8
COc1cc(NC(=O)c2ccc(S(=O)(=O)N(C)c3ccccc3)cc2)cc(OC)c1 | 12
CCCN1C/C(=C/c2cccc([N+](=O)[O-])c2)C(=O)/C(=C/c2cccc([N+](=O)[O-])c2)C1 | 29
CCN1C[C@@H]2[C@@H]3C(=O)N(Cc4ccccc4)C(=O)[C@@H]3[C@](Cc3ccccc3)(C1=O)N2C(=O)c1ccccc1 | -4
c1coc(-c2nc3nc4ccccc4nc3n2-c2ccc3c(c2)OCCO3)c1 | 10
COc1cc(OC)c(C(=O)OCC(=O)Nc2cccc(S(=O)(=O)NC3=NCCCCC3)c2)cc1OC | -8
Cc1cccc(-n2nc3c(c2NC(=O)c2ccc(Br)o2)CSC3)c1C | -5
Cc1ccc(-c2nc(=S)c3c(n2Cc2ccco2)CCCC3)cc1 | 6
Cc1c2cnn(-c3ccccc3)c(=O)c2c(C)n1CCCC(=O)N1CCN(c2ncccn2)CC1 | -9
CCCN(C(=O)c1cc(S(=O)(=O)N2CCN(CC)CC2)ccc1Cl)C1CCS(=O)(=O)C1 (stereo unspecified) | 9
OC[C@H]1O[C@@H](Oc2ccc(O)cc2)[C@H](O)[C@@H](O)[C@@H]1O | -4
CC1(C)Cc2c(sc3c2c(=O)n(Cc2ccccc2)c2nncn32)CO1 | -5
CCOC(=O)N1CCC(NC(=O)C2CCC(CNS(=O)(=O)c3ccc(OC)cc3)CC2)CC1 (stereo unspecified) | -2
CCc1ccc(-c2nn(-c3cc(Cl)ccc3[N+](=O)[O-])c(=O)c3ccccc23)cc1 | -4
S=P(c1ccc(N2CCOCC2)cc1N1CCOCC1)(N1CCOCC1)N1CCOCC1 | -5
Cc1cc(-c2csc(NCc3ccccc3)n2)c(C)n1C | 8
CN1CC(=O)N(CC(=O)Nc2ccc(N3CCOCC3)cc2)C1=O | -3
CCCN1Cc2cccc(C(=O)Nc3ccc(S(=O)(=O)N4CCCCCC4)cc3)c2C1=O | -7

# The list continues:
SMILES | Beta2AR agonist
Cc1ccccc1-n1nc(C)c2cc(C(=O)N3CCN(S(=O)(=O)c4ccccc4)CC3)sc21 | -2
COc1ccc(S(=O)(=O)N2CCOCC2)cc1C(=O)N(C)Cc1ccccc1F | -4
COc1ccc(CN2c3c(Br)cccc3C(=O)CS2(=O)=O)cc1 | 1
COc1cccc2c1C(=O)c1c(O)c3c(c(O)c1C2=O)CC(O)(C(C)=O)CC3OC1CC(O)C(O)C(C)O1 (stereo unspecified) | -203
COC(=O)C1(NC(=O)CNC(=O)OCc2ccccc2)CCCC1 | 9
N#Cc1ccc(C(=O)OCC(=O)Nc2cccnc2Cl)cc1 | 8
N#Cc1ccccc1S(=O)(=O)N1CCN(C(=O)c2cccc(S(=O)(=O)N3CCCC3)c2)CC1 | -3
O=c1[nH]c(SCc2nc3c(cnn3-c3ccccc3)c(=O)[nH]2)nc2ccccc12 | 9
CCN(CC)CCOCCn1c(C)ccc1C | 1
CCOC(=O)C1=C(C2=CCCCC2)c2ccc(OC)cc2N(S(=O)(=O)C(F)(F)F)C1C(=O)OCC (stereo unspecified) | 10
O=C(NCCCCc1ccccc1)c1cccc(NC(=O)C2CC2)c1 | -9
C[n+]1c(-c2ccc(C=NNC(=O)c3ccc(C(=O)NN=Cc4ccc(-c5cn6ccccc6[n+]5C)cc4)cc3)cc2)cn2ccccc21 | -16
COc1cc(O)c2c(=O)c3c(O)ccc(O)c3oc2c1 | 19
O=[N+]([O-])c1ccc2c(c1)N([O-])C1(CCCCC1)[N+]2=O | 5
COc1ccc(NC(=O)CN2CCN(CC(=O)Nc3cc(OC)cc(OC)c3)CC2)cc1 | 4

# Three compounds from above, ordered by the value under Beta2AR agonist, lowest first.
SMILES | Beta2AR agonist
O=C(NCCCCc1ccccc1)c1cccc(NC(=O)C2CC2)c1 | -9
Cc1ccccc1-n1nc(C)c2cc(C(=O)N3CCN(S(=O)(=O)c4ccccc4)CC3)sc21 | -2
COc1ccc(NC(=O)CN2CCN(CC(=O)Nc3cc(OC)cc(OC)c3)CC2)cc1 | 4

# Later entries
SMILES | Beta2AR agonist
COC(=O)c1ccc(CSc2nc3c(cnn3-c3ccc(Cl)cc3)c(=O)[nH]2)o1 | -3
O=C(NN=Cc1ccc2c(c1)OCO2)c1ccncc1 | 10
COc1ccc(C[C@@H]2OC3(C=CC(=O)C=C3)O[C@H]2Cc2ccc(OC)cc2)cc1 | 52*
CC(=O)OC1CCC2C3CCC4=C(CC(F)C(=O)C4)C3CCC12C (stereo unspecified) | -2
O=C(Nc1cccc2ccccc12)c1ccc(Br)o1 | 0
CCN1/C(=C2/OC(=S)N(C)C2=O)Sc2ccccc21 | -14
Cc1cc(OC(=O)c2ccco2)c(Sc2ccccc2[N+](=O)[O-])c(=O)o1 | 4
COC1=C(C)C(=O)C2=C(C1=O)C1C3CC4=C(C(=O)C(OC)=C(C)C4=O)C(CNC(=O)C(C)=O)N3C(C#N)C(C2)N1C (stereo unspecified) | -6
CN(c1ccccc1)S(=O)(=O)CS(=O)(=O)N(C)c1ccccc1 | 3
COc1ccc2nc(N=Nc3ccc(N(C)C)cc3)sc2c1 | 8
Nc1[nH][nH]c(=O)c1N=Nc1ccccc1 | -3
C=CCOC(=O)c1cc(-c2ccc(/C=C3\C(=O)NC(=O)C(C#N)=C3C)o2)ccc1Cl | 0
COc1ccc(Cn2c(CCC(=O)N3CCN(c4ccccn4)CC3)nc3ncccc3c2=O)cc1 | -6
O=C(CNc1cccc(S(=O)(=O)N2CCCCCC2)c1)Nc1cccc([N+](=O)[O-])c1 | 7
CCN(CC)CCNC(=O)c1ccc(NC(=O)c2cccc(S(=O)(=O)N3CCCCCC3)c2)cc1 | 19
CN(C)CCC(O)(c1ccccc1)c1ccccc1Cl (stereo unspecified) | 2
CC(C)(C)OC(=O)n1cccc1/C=C1\c2ccccc2C(=O)N1c1ccccc1 | 6
COc1ccccc1NC(=O)CSc1nnc2ccccn12 | 7
Cc1ccc(C2(SCC(N)C(=O)O)c3ccccc3-c3ccccc32)cc1 (stereo unspecified) | -2
COc1cc2c3nc4n(c(=O)c3n(CC(=O)N3CCCC3)c2cc1OC)CCS4 | -10

# These rows are one share of the data (hit frequency here may not be typical).
